# FPRL1 binder: human FPRL1 ligand, with FPR counter-screen; inhibition, %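 (tested at 6.7 µM)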; AID 441; 0.3% of 24,000 active; FPRL1-expressing cells, fluorescent ligand binding inhibition, flow cytometry;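 further: 0% = buffer alone and 100% = receptor blocker peptide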
# Target sequence (P25090 whole entry, looked up): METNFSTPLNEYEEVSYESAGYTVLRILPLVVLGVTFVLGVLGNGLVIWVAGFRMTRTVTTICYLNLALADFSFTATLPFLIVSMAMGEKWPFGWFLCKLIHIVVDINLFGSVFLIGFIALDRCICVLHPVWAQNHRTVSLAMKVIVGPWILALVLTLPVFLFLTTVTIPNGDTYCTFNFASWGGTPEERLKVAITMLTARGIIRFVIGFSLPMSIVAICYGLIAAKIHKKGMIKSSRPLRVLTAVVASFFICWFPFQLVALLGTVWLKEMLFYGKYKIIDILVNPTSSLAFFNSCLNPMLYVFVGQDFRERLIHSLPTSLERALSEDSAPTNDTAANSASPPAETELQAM
# FPR ligand: ligands of human FPR, also counter-screen for FPRL1 ligands; P21462; FPR-expressing cells, fluorescent ligand binding, flow cytometry; inhibition, %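 (tested at 6.7 µM)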; 0.74% of 24,000 active; AID 440;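 further: 0% = buffer wells and 100% = receptor blocker peptide wells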
# Target sequence (P21462 whole entry, looked up): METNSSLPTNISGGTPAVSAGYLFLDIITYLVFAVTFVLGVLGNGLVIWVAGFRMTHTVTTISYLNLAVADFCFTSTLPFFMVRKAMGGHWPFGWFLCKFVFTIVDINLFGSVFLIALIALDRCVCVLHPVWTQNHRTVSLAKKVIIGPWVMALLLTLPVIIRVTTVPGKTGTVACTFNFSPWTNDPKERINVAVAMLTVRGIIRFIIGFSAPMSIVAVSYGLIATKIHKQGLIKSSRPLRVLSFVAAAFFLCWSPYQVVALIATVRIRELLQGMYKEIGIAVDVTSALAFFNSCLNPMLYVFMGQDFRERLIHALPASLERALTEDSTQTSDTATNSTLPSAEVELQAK
# VCAM-1 down: suppression of endothelial VCAM-1 upregulation – cell-based, plate reader, pooled HUVEC, TNFa stimulus (AID 454) | HUVEC TNFa-induced VCAM-1 surface immunofluorescence, plate reader; numbers were filed only for top-ranked candidate wells | inhibition, % at 5 µM | 0.2% of 10,000 active;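 active means compound among top-ranked inhibitors of TNF-induced VCAM-1 adhesion protein staining, with the hit upheld by image or statistical review; inactive means the rest, including hits rejected on review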;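 further: 0% = TNFa with vehicle and 100% = cells without TNFa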
# VCAM-1 down imaging: suppression of endothelial VCAM-1 upregulation – imaging, high-content imaging, pooled HUVEC, TNFa stimulus (AID 456). HUVEC TNFa-induced VCAM-1 surface expression, immunofluorescence imaging; numbers were filed only for top-ranked candidate wells. inhibition, % at 5 µM; hits with a dose series show IC50 in µM. 0.2% of 10,000 active;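 active means top tenth filtered wells with inhibition above zero that passed visual or statistical confirmation; inactive means the rest, including hits rejected on review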;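 further: 0% = stimulated vehicle wells and 100% = unstimulated cells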
# VCAM-1 up imaging: boosters of cytokine-driven VCAM-1 levels – imaging, high-content imaging, pooled HUVEC, TNFa stimulus (AID 457); 0.2% of 10,000 active; Pooled HUVEC, TNFa-induced VCAM-1 immunofluorescence imaging; hits of this screen are not shown here; calls only;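 active means a top-ranked rise in VCAM-1 staining upheld on image or statistical review; inactive means the rest, including candidates rejected on review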;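 further: compounds tested at 5 µM in the well; cells exposed to compound for 24 hours before fixing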
# * hit, by the source's call; i = inactive; · = no result given.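 How the source made its calls, unless noted: active means mean above 30%; inconclusive means self-fluorescent; inactive means the rest.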 An excerpt; the hit share may differ from the screen's.
SMILES,FPRL1 binder,FPR ligand,VCAM-1 down,VCAM-1 down imaging,VCAM-1 up imaging
CCOC(=O)c1cc2c(=O)n3ccccc3nc2n(CCCOC)c1=NC(=O)C(C)(C)C,-5.9,-0.9,i,i,i
COc1ccc(CN2CC(C(=O)NCCCN3CCN(C)CC3)CC2=O)cc1 (configuration not stated),2.2,4.6,·,·,·
CCCn1c(=N)n(CC(=O)c2cccs2)c2ccccc21,5.5,-8.2,i,i,i
CCN1C(=O)C2(/C(=C(\O)c3ccc4c(c3)OCCO4)C(=O)C(=O)N2CCCOC)c2ccccc21 (configuration not stated),3.5,6.6,·,·,·
Cc1cc(C(C)(C)C)c(O)c(C)c1CC1=NCCN1,5.1,7.1,i,i,i
Cc1cccc(CCNC(=O)C2CCC(CNc3c(N4CCCC4)c(=O)c3=O)CC2)c1 (configuration not stated),-3.3,-1.4,·,·,·
CCOC(=O)c1ccc2nc3c(cc2c1)CCS3,-3.0,0.8,·,·,·
S=c1[nH]nc(-c2ccc3ccccc3n2)o1,0.8,-2.2,·,·,·
CCOc1ccc(-c2nc(CSCC(=O)N3CCN(c4cccc(OC)c4)CC3)c(C)o2)cc1,-1.9,0.3,·,·,·
COc1ccccc1N1CCN(C(=O)c2ccc3c(=O)n(Cc4ccco4)c(=S)[nH]c3c2)CC1,-5.2,-4.7,·,·,·
CCCOc1ccc(C2C(C(=O)OC)=CN(CCOC)C=C2C(=O)OC)cc1,-0.3,4.4,i,i,i
CCOC(=O)CCc1c(C)c2c(C)nn(-c3ccccc3)c2[nH]c1=O,1.7,4.8,·,·,·
COc1cc(NC(=O)c2cc(-n3cnnc3)ccc2Cl)cc(OC)c1,-22.8,-20.7,i,i,i
O=C1CCCN1CN(C(=O)c1ccc2c(c1)OCO2)c1cccc(Cl)c1,5.8,26.7,·,·,·
CCOC(=O)c1nnn(-c2nc(OC)nc(N(C)C)n2)c1-c1ccccc1,-2.4,-0.2,·,·,·
CC(C)CC(OC(=O)c1cccs1)C(=O)NCc1ccco1 (configuration not stated),0.2,-3.0,i,i,i
C=CCSc1n[nH]c(-c2ccc(OC)cc2)n1,2.6,0.8,i,i,i
CCN(C#N)c1nc(NC(C)C)nc(NC(C)C)n1,9.9,-3.2,i,i,i
O=C(CSc1nc2ccccc2o1)Nc1ccccc1,-4.9,5.3,i,i,i
CC1CCN(S(=O)(=O)c2cccc(C(=O)Nc3ccccn3)c2)CC1,1.1,1.2,i,i,i
CCC(Sc1nc(=O)cc(N)n1CCc1ccccc1)C(=O)Nc1ccccc1C#N (configuration not stated),4.2,-6.2,·,·,·
COc1ccc(OC)c(S(=O)(=O)Nc2ccc(O)c3ccccc23)c1,-1.3,1.9,i,i,i
O=S(=O)(NCc1cccnc1)c1cccc2nsnc12,-4.7,-1.8,i,i,i
CC(=O)c1ccc(NC(=O)C2CCCN2S(=O)(=O)c2cccc3cccnc23)cc1 (configuration not stated),1.7,0.7,·,·,·
O=C(C1CCC(CNS(=O)(=O)c2cccc3cccnc23)CC1)N1CCCC1 (configuration not stated),-1.0,-4.1,i,i,i

# New compounds follow.
SMILES,FPRL1 binder,FPR ligand,VCAM-1 down,VCAM-1 down imaging,VCAM-1 up imaging
CCOC(=O)C(CC)(CCC(=O)O)c1csc(N)n1 (configuration not stated),-1.6,2.1,i,i,i
C=CCS/C(=N\n1cnc2ccccc2c1=O)N1CCCCC1,6.4,2.9,·,·,·
CC(=O)Nc1ccc(S(=O)(=O)NCC2CCC(C(=O)NCCC(C)C)CC2)cc1 (configuration not stated),-2.6,0.2,·,·,·
CCc1ccc(OC(=O)c2ccn(CC)n2)cc1,2.2,7.3,·,·,·
OC(COc1ccccc1)CN1C2=NCCCN2c2ccccc21 (configuration not stated),3.9,11.1,i,i,i
O=C(NCCCN1CCCCC1)C1CCC(=O)N1CCc1ccccc1 (configuration not stated),1.3,2.9,·,·,·
CC1/C(=N/O)C(CN(C)C)C2CC1C2(C)C (configuration not stated),5.0,3.3,i,i,i
CCCCNC(=O)c1nc2ncc(Br)cn2n1,2.4,-1.4,i,i,i
COC(=O)c1ccccc1NC(=O)C1CC(=O)N(c2ccccc2)C1 (configuration not stated),-1.3,-5.6,i,i,i
CC(C)c1ccc(N(CC(=O)O)S(=O)(=O)c2cccnc2)cc1,2.4,-5.4,·,·,·
COc1ccc(OCCN2C(=O)NC(C)(c3ccc(C)cc3)C2=O)cc1 (configuration not stated),-5.4,-4.1,i,i,i
COc1ccc(S(=O)(=O)N2CCCN(Cc3cccc(F)c3)CC2)cc1,3.0,-0.6,·,·,·
CC(NC(=O)OC1CCCCC1)N1C(=O)C2C3C=CC(C3)C2C1=O (configuration not stated),3.4,7.0,·,·,·
COCCNC(=O)c1sc2ncn(CC(=O)N3CCCCC3)c(=O)c2c1C,-0.4,-4.7,·,·,·
Cc1noc(C(=O)Nc2ccccc2C(F)(F)F)c1Cl,0.4,5.9,·,·,·
Cc1ccc(C)n1CCN1CCN(CC(=O)Nc2ccc(S(N)(=O)=O)cc2)CC1,10.1,-0.2,·,·,·
CSc1nnc2c3ccccc3n(Cc3ccccc3)c2n1,-17.3,-18.8,i,i,i
CCc1cc2c(=O)c(-c3nc4ccccc4n3C)c(COCC(=O)O)oc2cc1O,-1.7,-15.6,·,·,·
Cn1c(Cn2c(=O)sc3ccccc32)nnc1SCC(=O)NCc1ccccc1,1.2,9.1,·,·,·
Cc1cc(NC(=O)c2cccc(S(=O)(=O)N3CC(c4ccccc4)CC3=O)c2)no1 (configuration not stated),2.7,4.3,i,i,i
O=C(c1ccc(CS(=O)(=O)c2c(Cl)cccc2Cl)o1)N1CCN(c2ccccn2)CC1,-7.6,-0.2,·,·,·
COc1ccc(N(C)S(=O)(=O)c2c(C)[nH]c(=O)[nH]c2=O)cc1,-0.8,-0.3,·,·,·
O=C(c1cc2c(s1)-c1ccccc1OC2)N1CCCC1,0.6,5.6,·,·,·
O=P(O)(CCc1ccccc1)CN1CCCCC1,5.3,-7.1,i,i,i
CN(CC(=O)N1CCN(c2ccccc2)CC1)S(=O)(=O)c1cnc[nH]1,8.4,4.6,·,·,·

# A draw from above in order of SMILES length, falling:
SMILES,FPRL1 binder,FPR ligand,VCAM-1 down,VCAM-1 down imaging,VCAM-1 up imaging
CC(=O)Nc1ccc(S(=O)(=O)NCC2CCC(C(=O)NCCC(C)C)CC2)cc1 (configuration not stated),-2.6,0.2,·,·,·
O=C(NCCCN1CCCCC1)C1CCC(=O)N1CCc1ccccc1 (configuration not stated),1.3,2.9,·,·,·
Cc1noc(C(=O)Nc2ccccc2C(F)(F)F)c1Cl,0.4,5.9,·,·,·
CCCCNC(=O)c1nc2ncc(Br)cn2n1,2.4,-1.4,i,i,i

# Further entries
SMILES,FPRL1 binder,FPR ligand,VCAM-1 down,VCAM-1 down imaging,VCAM-1 up imaging
CCc1ccc(C2CC(c3cccc(Cl)c3)n3nc(N)nc3N2)cc1 (configuration not stated),17.3,18.9,·,·,·
CN(C)CCCn1c(N)c(C#N)c2nc(C#N)c(C#N)nc21,-3.0,-6.6,i,i,i
COc1cccc(-n2ccnc2SCC(=O)Nc2ccccc2)c1,-1.0,2.1,·,·,·
C/C(=C\C(=O)c1ccc(F)cc1)Nc1ccc(N2CCOCC2)cc1,5.3,20.1,i,i,i
COCCNC(=O)c1c(N)n(CCC2=CCCCC2)c2nc3ccccc3nc12,-3.8,-3.2,i,i,i
O=C1CC(C(=O)N2CCN(c3ccc(F)cc3)CC2)CN1CCc1ccccc1 (configuration not stated),-0.8,-0.4,·,·,·
COc1ccccc1N1CCN(c2cc(=O)n(-c3ccc(Br)cc3)c(=O)[nH]2)CC1,12.5,0.6,·,·,·
O=C1c2ccccc2S(=O)(=O)N1Cc1nnc(-c2ccccc2Br)o1,3.5,6.0,i,i,i
COc1ccc(CCNC(=O)CSc2nnc(CNC(=O)c3ccccc3F)o2)cc1OC,-5.6,-4.8,·,·,·
COc1ccc(CCc2nc(-c3ccc(-n4cccc4)cc3)no2)cc1,2.6,0.9,·,·,·
Cc1ccc(C(=O)CC2(O)C(=O)N(CN3CCOCC3)c3ccccc32)cc1 (configuration not stated),1.8,-0.3,i,i,i
CCOc1ccc(C2N(c3ccc(Cl)cc3)C(=O)C3CCCN32)cc1OC (configuration not stated),-0.3,-3.9,·,·,·
CCCCS(=O)(=O)NC1=NCN(CCOC(=O)c2ccccc2)CN1,1.3,-4.3,i,i,i
Cc1ccc(NC(=O)c2ccco2)c(NC(=O)c2cccs2)c1,0.9,9.5,i,i,i
COc1ccc(CN2CC(C(=O)NCCC3=CCCCC3)CC2=O)cc1 (configuration not stated),-1.4,2.7,·,·,·
COC(=O)c1cc(-c2c(C)nn(-c3ccccc3)c2C)n[nH]1,2.7,-15.6,i,i,i
CCCC(C)C(=O)Nc1ccc(C(N)=O)cc1 (configuration not stated),-7.2,-3.2,i,i,i
CCOC(=O)c1c(NC(=O)CSc2nc3c(c(=O)n(C)c(=O)n3C)n2C(C)C)sc(C)c1C,-15.9,-6.0,i,i,i
O=C(NCc1ccccn1)c1cnc2sccn2c1=O,-4.1,-0.6,·,·,·
O=C(NCCCN1CCCC1=O)c1ccc2c(c1)ncn2C1CCCCC1,-0.5,-8.2,·,·,·
Nc1nnc(SCc2cc3c(cc2Cl)OCO3)s1,-6.4,0.0,i,i,i
COc1ccccc1NC(=O)N1CCN(c2ccccc2F)CC1,1.9,3.6,i,i,i
O=C(NC1CC1)c1c[nH]c2ccc(S(=O)(=O)Nc3cccc(C(F)(F)F)c3)cc2c1=O,-0.4,3.4,·,·,·
O=C(NCCC1=CCCCC1)C1CCN(S(=O)(=O)c2cnc[nH]2)CC1,-0.2,7.5,i,i,i
C[C@]12C=CC(=O)C=C1CC[C@H]1[C@@H]3C[C@@H](O)[C@](O)(C(=O)CO)[C@@]3(C)C[C@H](O)[C@@]12F,-1.8,4.6,i,i,i

# The results go on:
SMILES,FPRL1 binder,FPR ligand,VCAM-1 down,VCAM-1 down imaging,VCAM-1 up imaging
O=C(Nc1ccccc1)C1=C(O)CC(c2ccco2)CC1=Nc1ccccc1 (configuration not stated),-2.3,-2.3,·,·,·
COc1ccc(Cn2nnnc2CN2CCOCC2)cc1,-4.4,-5.8,i,i,i
COC(=O)C(Cc1ccccc1)NC(=O)CSc1nc(N)cc(=O)[nH]1 (configuration not stated),7.6,-1.6,·,·,·
Cc1ncc(CO)c2cc(C(N)=O)c(=Nc3ccccc3)oc12,-0.6,-8.1,·,·,·
CC(C)N(Cc1nc(-c2ccccc2)no1)C(=O)Cc1ccccc1,5.4,-5.3,·,·,·
CCCCSCCCNC(=O)CS(=O)Cc1nc(-c2cccc(C)c2)oc1C (configuration not stated),-6.2,3.8,i,i,i
Cc1ccccc1-n1c(Cn2c(=O)sc3ccccc32)nnc1SCC(=O)NCC1CCCO1 (configuration not stated),7.9,7.9,·,·,·
Nc1nonc1-n1nnc(C(=O)c2ccccc2)c1-c1ccccc1,8.8,8.0,i,i,i
O=C(CC1Oc2ccccc2NC1=O)NC1CC1 (configuration not stated),5.3,-5.7,·,·,·
Cc1sc2nc(SCC(=O)NCCO)n(C)c(=O)c2c1C,2.0,-4.8,i,i,i
CC1CCN(C(=O)C2CCN(S(=O)(=O)c3cnc[nH]3)CC2)CC1,-2.6,-8.3,i,i,i
COC(=O)C1(C)NC(c2ccco2)C2C(=O)N(c3ccc(C)cc3)C(=O)C21 (configuration not stated),-1.6,3.4,i,i,i
CCN1CCN(c2nc3c(c(=O)n(C)c(=O)n3C)n2CCSc2ncccn2)CC1,3.5,-11.3,i,i,i
CC(C)OCCCn1c(=S)[nH]c2cc3c(cc2c1=O)OCO3,0.5,4.3,·,·,·
COc1ccc(NC(=O)N(CCCN2CCOCC2)Cc2cccnc2)c(OC)c1,5.4,8.5,·,·,·
CCCCn1c(SCC(=O)c2ccc3c(c2)OCCO3)nnc1-c1ccco1,-7.6,0.3,i,i,i
COc1ccc(-c2noc(N3CCC(C(=O)N4CCN(c5ccccn5)CC4)CC3)n2)cc1,-1.7,4.8,·,·,·
Cc1ccc2c(c1)C(N1CCCC1=O)CC(c1ccco1)N2 (configuration not stated),-1.6,-2.1,i,i,i
COC(=O)C1C(=O)C2=C(CC1C)NC(=O)CC2c1ccc(O)c(OC)c1 (configuration not stated),8.1,-4.7,·,·,·
O=C(Nc1ccc(Nc2ccccc2)cc1)C1CC1,0.9,-6.8,·,·,·

# Four records picked at random from the list so far:
SMILES,FPRL1 binder,FPR ligand,VCAM-1 down,VCAM-1 down imaging,VCAM-1 up imaging
Cc1sc2nc(SCC(=O)NCCO)n(C)c(=O)c2c1C,2.0,-4.8,i,i,i
COC(=O)C1C(=O)C2=C(CC1C)NC(=O)CC2c1ccc(O)c(OC)c1 (configuration not stated),8.1,-4.7,·,·,·
CC(C)OCCCn1c(=S)[nH]c2cc3c(cc2c1=O)OCO3,0.5,4.3,·,·,·
COC(=O)C(Cc1ccccc1)NC(=O)CSc1nc(N)cc(=O)[nH]1 (configuration not stated),7.6,-1.6,·,·,·
